FEN1 inh – human FEN1 inhibition; 390,000 tested, 0.35% active; Potency, µM (top dose mostly 114 µM), without a hit: at the top dose activity change, negative = inhibition, actives largely listed as inhibitors; Recombinant FEN1 flap cleavage, fluorescence, 15 min; also: nearly all actives have a fitted effect of over 65% in size
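FEN1 at 10 nM preincubated with compounds 15 min at room temperature, then flap DNA substrate added at 50 nM final. Signal read at 0 and 15 min; concentration-response fitted with four-parameter Hill equation.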
GCN5L2 inh – blocks human GCN5L2 histone acetyltransferase | Q92830 | 390,000 tested, 0.21% active | GCN5L2 HAT assay, ThioGlo1 CoA-SH fluorescence | Potency, µM (series often up to 58.9 µM), for inactives: at the highest dose activity change, negative = inhibition, hits mostly inhibitors
Target sequence (Q92830 whole entry, looked up): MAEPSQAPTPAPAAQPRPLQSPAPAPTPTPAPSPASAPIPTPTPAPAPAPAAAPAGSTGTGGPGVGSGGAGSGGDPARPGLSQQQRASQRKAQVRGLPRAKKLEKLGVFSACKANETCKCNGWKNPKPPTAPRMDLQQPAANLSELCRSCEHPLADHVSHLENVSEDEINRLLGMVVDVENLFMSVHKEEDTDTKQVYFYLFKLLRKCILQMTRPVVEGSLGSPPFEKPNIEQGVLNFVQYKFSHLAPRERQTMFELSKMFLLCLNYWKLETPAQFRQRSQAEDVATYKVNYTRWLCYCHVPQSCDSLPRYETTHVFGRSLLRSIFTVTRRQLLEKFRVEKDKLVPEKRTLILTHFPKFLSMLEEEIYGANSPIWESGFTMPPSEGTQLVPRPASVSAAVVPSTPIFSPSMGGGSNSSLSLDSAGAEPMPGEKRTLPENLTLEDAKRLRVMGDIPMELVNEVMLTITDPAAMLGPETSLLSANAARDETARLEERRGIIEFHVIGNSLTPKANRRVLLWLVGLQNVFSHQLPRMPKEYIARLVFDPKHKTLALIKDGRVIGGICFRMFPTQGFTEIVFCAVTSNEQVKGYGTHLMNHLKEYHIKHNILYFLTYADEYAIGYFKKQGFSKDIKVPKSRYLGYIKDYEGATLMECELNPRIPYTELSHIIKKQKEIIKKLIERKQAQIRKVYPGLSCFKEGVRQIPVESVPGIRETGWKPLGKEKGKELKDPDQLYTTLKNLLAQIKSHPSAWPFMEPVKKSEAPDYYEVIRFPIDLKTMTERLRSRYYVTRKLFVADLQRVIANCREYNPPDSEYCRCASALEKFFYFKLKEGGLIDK
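Free CoA generated was detected with ThioGlo1 (50uM) fluorescence at Ex340nm/Em540nm, read immediately and after 20 min at room temperature. Enzyme, 20 nM in HEPES pH 7.5 buffer, saw compounds 15 min before adding 75uM H3(1-25) peptide and 70uM acetyl-CoA.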
Active calls of the source: *; u = inconclusive; x = not tested or not shown; & = joins results of further samples; [ ] = dose if it differs, or a comment. Calls follow the shape of the dose curve; as a rule, active = well fitted curve in the direction sought with a large enough effect; inconclusive = small, poorly fitted or top-dose-only effect, or another doubt; inactive = no such curve, though single readings can be large; an effect the other way counts as inactive or inconclusive. % is scaled to controls: 0 for no effect and ±100 for the full control effect; potency is read from the fitted curve at half-maximal effect. Not all compounds are listed, and most or all hits are left out here.

SMILES	FEN1 inh	GCN5L2 inh
COc1ccc2ccccc2c1/C=N\n1c(C)cc(C)c(C(N)=O)c1=O	-14%	-6%
COc1ccc(C(=O)N2CCCC2)cc1S(=O)(=O)N1CCOCC1	-3%	x
O=C(Nc1ccc(C(=O)O)cc1)/C(=C\C=C\c1ccccc1)NC(=O)c1cccc(Br)c1	1%	u
CCOc1ccccc1CNC(=O)CNC(=O)c1cccs1	5%	-8%
O=C(O)CCn1cc(-c2ccc(F)cc2)nc1-c1ccncc1	20%	-16%
Cc1ccc(S(=O)(=O)NCCC(=O)NC2CCCC2)cc1	2%	-3%
Cc1noc(Cn2c(=O)c3cc4c(cc3n(CC(=O)Nc3ccccc3F)c2=O)OCO4)n1	0%	u
O=c1cc(-c2ccccc2)nc(SCc2ccc(Cl)cc2)[nH]1	-1%	u
O=C(CCN1C(=O)c2cccc3cccc(c23)C1=O)N1CCN(Cc2ccc3c(c2)OCO3)CC1	-16%	u
Cc1sc(NC(=S)NC(=O)c2cccs2)nc1-c1ccc(C(C)C)cc1	-19%	-3%
CCOC(=O)CSC1=C(C#N)C(c2ccc(C)o2)CC(=O)N1 (configuration not stated)	-4%	-4%
Cc1ccc(NC(=O)CSc2nc3ccccc3c(=O)n2CCCC(=O)NCCCN2CCOCC2)cc1C	0%	-4%
COC(=O)c1c(-c2ccc(C)cc2)csc1NC(=O)Cc1ccc(OC)c(OC)c1	-5%	u
O=C1NCCN1C(=O)c1ccccc1F	0%	-9%
CC(C)CNC(=O)COC(=O)c1ccccc1OCC(=O)Nc1ccc(Br)cc1	4%	32%[activator]
Cc1n[nH]c(C)c1-c1nc2ccccc2[nH]1	1%	-4%
CC(=O)N1CCc2cc(Br)cc(S(=O)(=O)N3CCCCC3)c21	12%	-3%
CN(NC(=O)c1ccc(Cl)cc1)c1cccc(Cl)n1	-7%	-2%
CCOc1ccc(C(C(=O)NC2CCCCC2)N(C(=O)c2ccco2)c2ccc(-n3cnnn3)c(C)c2)cc1 (configuration not stated)	-13%	-4%
CC(C)CCN=Cc1c(O)n(-c2ccccc2)c(=O)c2ccccc12	-4%	-1%
NC(=O)C1=CN(Cc2ccc(Cl)cc2)CCC1C(F)(F)F (configuration not stated)	-2%	-3%
CN(CCNC(=O)C1CCN(c2ncnc3c2nc2n3CCCCC2)CC1)Cc1ccccc1	3%	-4%
COC(=O)c1[nH]c2ccc(Cl)cc2c1NC(=O)CCN1CCN(C2CCCCC2)CC1	1%	-20%
NS(=O)(=O)c1ccc(CCNC(=O)C(=O)c2cn(CC(=O)N3CCCC3)c3ccccc23)cc1	-13%	-8%
Cc1cccc(NC(=O)Cc2ccc(-n3c(C)nc4cccnc43)cc2)c1C	17%	-8%
SMILES	FEN1 inh	GCN5L2 inh
COc1ccccc1NC(=O)COC(=O)/C=C/c1ccc2c(c1)OCO2	-8%	4%
CCOCCCNC(=O)C(NC(=O)Cc1cccs1)c1ccc(OC)cc1 (configuration not stated)	-2%	-6%
Cn1ccnc1C(O)c1cc(C(C)(C)C)c(O)c(C(C)(C)C)c1 (configuration not stated)	7%	-4%
O=c1[nH]c(=O)n(C2OC(CO)C(O)C2O)cc1F (configuration not stated)	4%	x
CCOc1ccc(CNCc2c(C(=O)O)n(Cc3ccc(OC)cc3)c3ccccc23)cc1	-1%	-21%
O=C(c1cc(-c2ccc(Cl)cc2Cl)on1)N1CCCC1	13%	-2%
CCOC(=O)N/N=C/c1c(C)c(C(=O)c2ccc(F)cc2)n2ccccc12	5%	-12%
CC(NC(=O)CSCc1ccccc1Br)c1ccccc1 (configuration not stated)	-10%	-1%
COc1cc(CN(C(=S)NCC(=O)NC2CC2)C2CCCC2)cc(OC)c1OC	-1%	-4%
CCOC(=O)c1c(NC(=O)CN(CC)CC)sc2c1CCC2	3%	1%
CCOC(=O)C1=C(CN2CCc3ccccc32)NC(=O)NC1c1ccc(Cl)cc1 (configuration not stated)	-13%	-5%
COc1ccc(-n2nc(C(=O)NCC(=O)Nc3cccc(NC(C)=O)c3)c3ccccc3c2=O)cc1	-4%	-6%
COc1ccc(N2CCN(c3ccc([N+](=O)[O-])nc3)CC2)cc1	-2%	-3%
CC1(C)CC2CC(C)(CN2S(=O)(=O)c2cccc(C(=O)OCC(=O)NC(N)=O)c2)C1 (configuration not stated)	-8%	-5%
COCCCNC(=O)Cn1cc(/C=C(\C#N)C(=O)NC2CC2)c2ccccc21	-14%	-8%
COc1ccc2[nH]c3c(NCc4ccco4)ncnc3c2c1	u	-12%
CN(C)S(=O)(=O)Oc1ccccc1C(=O)Nc1ccc(F)cc1	-11%	-11%
CCOC(=O)CNC(=O)CSc1nccn1Cc1ccco1	-4%	-3%
Cc1c(C(=O)N(C)C)c2cc(Cl)ccc2n1O	20%	-1%
CCOc1cc(C)c(Cl)cc1S(=O)(=O)n1ccnc1	9%	-4%
Cn1cccc1/C=C1\CC(C(C)(C)C)C/C(=C\c2cccn2C)C1=O (configuration not stated)	0%	0%
Cc1cc(C)n(-c2nc3cc(Cl)ccc3nc2N2CCN(c3ccccc3F)CC2)n1	-10%	-11%
CCS(=O)(=O)NCC(c1ccco1)N1CCN(c2ccccc2)CC1 (configuration not stated)	18%&-8%	-8%&3%
COc1cc(OC)c(NC(=O)Nc2c(C)n(C)n(-c3ccccc3)c2=O)cc1Cl	14%	-7%
CCN(c1ccc(Cl)cc1)S(=O)(=O)c1nnc(NC(=O)C2CCCCC2)s1	-1%	-8%
SMILES	FEN1 inh	GCN5L2 inh
CC(C)c1nnc(NC(=O)Cc2ccccc2[N+](=O)[O-])s1	-9%	1%
O=C(c1cc(COc2cccc(C(F)(F)F)c2)on1)N1CCC(c2ccccc2)CC1	-3%	-4%
COc1cc(OC)cc(C(=O)N[C@H](C(=O)NCc2cccs2)C(C)C)c1	0%	-4%
CCOc1ccc(NC(=O)CCN2CCN(S(=O)(=O)c3cc(Cl)ccc3OC)CC2)cc1	2%	u
CC1CN(S(=O)(=O)c2ccc(C(=O)Nc3sccc3C(N)=O)cc2)CC(C)O1 (configuration not stated)	5%	-4%
O=C(c1cc(-c2ccc(Cl)cc2)on1)N1CCN(c2ccc(F)cc2)CC1	-7%	-1%
CCCC(=O)Nc1nnc(CC(=O)OCC)s1	1%	-6%
Cc1ccsc1C(=O)NCc1ccccc1Cl	2%	-5%
O=C(Nc1nccs1)c1ccc(Br)c(S(=O)(=O)N2CCCC2)c1	1%	-13%
CC(C)(C)OC(=O)C[C@H]1C/C=C\C[C@H](CC(=O)N[C@H](CO)Cc2ccccc2)C(=O)N2CCC[C@H]2COC1=O	14%	-2%
CC(=O)Oc1ccc(-c2cc3ccc(OC(C)=O)cc3oc2=O)cc1	18%	x
C=CC[C@H](CC(=O)N(CCO)Cc1ccccc1)C(=O)NC[C@H](OC(=O)[C@@H](CC=C)Cc1ccc(F)cc1)c1ccccc1	u	-11%
CCN(CC)C(=O)Oc1ccc(Br)cc1C(=O)Nc1ccc(F)cc1F	1%	-4%
COc1ccc(C(C)=O)c2c(O)cccc12	0%	-2%
CCCCNC(=O)c1ccc(NC(=O)CC2SC(N3CCCC3)=NC2=O)cc1 (configuration not stated)	-6%	1%
Cc1nc2cc(-c3ccc(Cl)cc3)nn2c(C)c1CCC(=O)NC(C)c1ccc2c(c1)OCCO2 (configuration not stated)	-15%	-10%
[O-]/[N+](=C/c1cccnc1)c1ccc(Br)cc1	-4%	-4%
CCOC(=O)N1CCN(C(=O)c2cc(C)no2)CC1	17%	-1%
Cc1ccc(N(C(C)C(=O)Nc2cccc(N(C)S(C)(=O)=O)c2)S(C)(=O)=O)cc1 (configuration not stated)	1%	-8%
CCN(CC)S(=O)(=O)c1ccc(N2CCCC2)c(NC(=O)C2=NN(c3ccccc3)C(=O)CC2)c1	0%	-3%
O=C(/C=C/c1ccccc1F)c1ccoc1	5%	-14%
CC(C)C(NC(=O)/C(=C\c1ccco1)NC(=O)c1ccco1)C(=O)O (configuration not stated)	-8%	u
Cc1ccc(/C=C/C(=O)NC2=NCCS2)cc1	3%	-8%
COc1cc(OC)cc(C(=O)Nc2ncc3c(n2)CC(C)CC3=O)c1 (configuration not stated)	3%	2%
O=S(=O)(NC1CCCCC1)c1ccc(Cl)nc1	2%	-4%

Another view of 18 compounds above.
Values run as follows: FEN1 inh	GCN5L2 inh
> CC(C)c1nnc(NC(=O)Cc2ccccc2[N+](=O)[O-])s1
→ -9%	1%
> O=C(c1cc(COc2cccc(C(F)(F)F)c2)on1)N1CCC(c2ccccc2)CC1
→ -3%	-4%
> COc1cc(OC)cc(C(=O)N[C@H](C(=O)NCc2cccs2)C(C)C)c1
→ 0%	-4%
> CCOc1ccc(NC(=O)CCN2CCN(S(=O)(=O)c3cc(Cl)ccc3OC)CC2)cc1
→ 2%	u
> CC1CN(S(=O)(=O)c2ccc(C(=O)Nc3sccc3C(N)=O)cc2)CC(C)O1 (configuration not stated)
→ 5%	-4%
> O=C(c1cc(-c2ccc(Cl)cc2)on1)N1CCN(c2ccc(F)cc2)CC1
→ -7%	-1%
> CCCC(=O)Nc1nnc(CC(=O)OCC)s1
→ 1%	-6%
> Cc1ccsc1C(=O)NCc1ccccc1Cl
→ 2%	-5%
> O=C(Nc1nccs1)c1ccc(Br)c(S(=O)(=O)N2CCCC2)c1
→ 1%	-13%
> CC(C)(C)OC(=O)C[C@H]1C/C=C\C[C@H](CC(=O)N[C@H](CO)Cc2ccccc2)C(=O)N2CCC[C@H]2COC1=O
→ 14%	-2%
> CC(=O)Oc1ccc(-c2cc3ccc(OC(C)=O)cc3oc2=O)cc1
→ 18%	x
> C=CC[C@H](CC(=O)N(CCO)Cc1ccccc1)C(=O)NC[C@H](OC(=O)[C@@H](CC=C)Cc1ccc(F)cc1)c1ccccc1
→ u	-11%
> CCN(CC)C(=O)Oc1ccc(Br)cc1C(=O)Nc1ccc(F)cc1F
→ 1%	-4%
> COc1ccc(C(C)=O)c2c(O)cccc12
→ 0%	-2%
> CCCCNC(=O)c1ccc(NC(=O)CC2SC(N3CCCC3)=NC2=O)cc1 (configuration not stated)
→ -6%	1%
> Cc1nc2cc(-c3ccc(Cl)cc3)nn2c(C)c1CCC(=O)NC(C)c1ccc2c(c1)OCCO2 (configuration not stated)
→ -15%	-10%
> [O-]/[N+](=C/c1cccnc1)c1ccc(Br)cc1
→ -4%	-4%
> CCOC(=O)N1CCN(C(=O)c2cc(C)no2)CC1
→ 17%	-1%

Other structures
SMILES	FEN1 inh	GCN5L2 inh
COc1cccc(OC)c1C1=NC(C)(C)CO1	4%	4%
COc1ccccc1NC(=O)c1ccc(NC(=O)COC(=O)c2cccnc2Cl)cc1	0%	-3%
O=S(=O)(c1cccs1)N1CCC2(CC1)OCCO2	15%	1%
O=C(COC(=O)c1cccc(O)c1)Nc1ccc(N2CCOCC2)cc1	-7%	-1%
CN(C)c1ccc(/C=c2\sc3n(c2=O)CCCN=3)cc1	-6%	-4%
CC(=O)Nc1ccc(-n2nnnc2SCC(=O)NCc2cccs2)cc1	0%	-8%
Cc1cc(=O)[nH]c(SCC(=O)NC2CCCc3ccccc32)n1 (configuration not stated)	3%	-25%
CC1CN(C(=O)COC(=O)c2cc(=O)c3ccccc3o2)CC(C)O1 (configuration not stated)	1%	1%
CCOc1ccccc1NC(=O)Cn1c(=O)oc2ccccc21	-12%&-3%	-4%&-1%
CC(C)(C)c1cc(NC(=O)COC(=O)c2ccc(O)cc2O)n(-c2ccccc2)n1	-3%	-1%
Cc1cc(C)n2nc(CNS(=O)(=O)c3ccccc3)nc2n1	-5%	-5%
COc1cccc(-c2cc(C(=O)N3CCN(S(=O)(=O)c4ccc(Br)cc4)CC3)[nH]n2)c1	-15%	-6%
CSc1nc(N)nc(SCC(=O)Nc2cccc(F)c2)c1C#N	-10%	0%
Cn1c(=O)n(C)c2cc([N+](=O)[O-])c(N3CCN(C(=O)c4cccc(F)c4)CC3)cc21	7%	-2%
O=C(CN1CCN(S(=O)(=O)c2cccc(Br)c2)CC1)NCCc1cccs1	-2%	-14%
COC(=O)c1ccccc1NC(=O)COC(=O)CSc1nnc(N)s1	1%	-11%
Cc1c(NC(=O)CSc2nnnn2-c2ccc(F)cc2)c(=O)n(-c2ccccc2)n1C	4%	3%
CCCN(CCC)CCNC(=O)Cn1cc2c(n1)-c1c(oc(C(=O)N3CCCC3)c1C)CC2	15%	-7%
Cc1nnc(NC(=O)CSc2nccn2-c2ccc(F)cc2)s1	6%	-2%
CN(C)c1c(N)c(=O)oc2ccccc12	-8%	0%
CN1CCN(C2=Nc3ccccc3Oc3ccc(Cl)cc32)CC1	u	-5%
CC(C)CC1NC(C(=O)O)Cc2c1[nH]c1ccccc21 (configuration not stated)	29%	-2%
CSc1ccccc1OCc1cc(C(=O)N(C)CC2COCCO2)no1 (configuration not stated)	6%	-13%
COc1ccc(CC(=O)NC(=S)Nc2ccc(S(N)(=O)=O)cc2)cc1	-7%	-1%
O=C(Nc1ccc(S(=O)(=O)Nc2ncccn2)cc1)c1ccc(Cl)c([N+](=O)[O-])c1	0%	-2%
Cc1nc2ccccc2c(=O)n1NC(=O)C1CCCCC1	-3%	-17%
Cc1nnc(SCc2ccc(C(=O)O)cc2)s1	-4%	-8%
